Rango-impB inh – prevents formation of the Rango-importin beta complex; Q14974; Rango CFP/YFP FRET sensor + importin beta, 45 min; Potency, µM (doses to about 92.2 µM), for inactives: at the highest dose inhibition of complex formation; 340,000 compounds, 0.031% hits; AID 540263; active = rising FRET ratio curve, often small or poorly fitted; inconclusive = mostly compound fluorescence or quenching in the first reads; inactive = flat curves in all reads;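 note: potency is the fitted concentration of half-maximal effect; 0% = DMSO wells and 100% = buffer wells lacking importin beta; nearly all actives have a fitted effect of over 15% in size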
Target sequence (Q14974 whole entry, looked up): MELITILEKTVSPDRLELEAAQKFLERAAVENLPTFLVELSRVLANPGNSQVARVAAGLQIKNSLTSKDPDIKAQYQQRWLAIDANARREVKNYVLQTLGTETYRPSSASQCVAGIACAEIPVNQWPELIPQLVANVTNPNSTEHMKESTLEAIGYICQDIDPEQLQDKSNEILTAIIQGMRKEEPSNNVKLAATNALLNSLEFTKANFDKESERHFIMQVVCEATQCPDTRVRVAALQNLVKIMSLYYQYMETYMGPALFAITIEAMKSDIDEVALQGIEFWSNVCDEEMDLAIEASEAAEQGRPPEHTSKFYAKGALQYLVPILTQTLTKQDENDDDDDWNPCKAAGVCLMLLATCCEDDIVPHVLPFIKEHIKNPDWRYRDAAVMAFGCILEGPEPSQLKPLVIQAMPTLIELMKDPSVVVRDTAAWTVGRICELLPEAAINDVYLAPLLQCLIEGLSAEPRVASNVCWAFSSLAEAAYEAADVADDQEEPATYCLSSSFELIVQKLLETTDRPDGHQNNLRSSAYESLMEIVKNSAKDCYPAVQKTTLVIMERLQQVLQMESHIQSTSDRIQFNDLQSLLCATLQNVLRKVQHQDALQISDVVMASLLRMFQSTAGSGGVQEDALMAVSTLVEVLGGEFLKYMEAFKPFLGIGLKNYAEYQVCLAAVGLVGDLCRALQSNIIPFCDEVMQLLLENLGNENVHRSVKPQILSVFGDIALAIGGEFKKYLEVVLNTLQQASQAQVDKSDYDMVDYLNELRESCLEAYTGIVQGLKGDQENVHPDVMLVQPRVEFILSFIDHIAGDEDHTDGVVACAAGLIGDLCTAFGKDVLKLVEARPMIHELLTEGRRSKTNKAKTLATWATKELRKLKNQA
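FRET biosensor Rango (snurportin 1 IBB between N-terminal EYFP and C-terminal Cerulean), 50 nM in PBS/1 mM DTT/0.02% Tween-20/0.1% BSA, preincubated 5 min RT with compound; 0.125 microM importin beta added, 45 min RT, CFP/YFP FRET ratio read.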
GLA inh pH 4.5 – blocks human alpha-galactosidase A at pH 4.5. P06280. purified enzyme, 4-MU-alpha-Gal fluorescence, pH 4.5. activity change, negative = inhibition, % at 105 µM. 230,000 tested, under 10 active. AID 1467; inconclusive = small, poorly fitted or top-dose-only inhibition, or a rising curve; inactive = flat fitted curve, though single readings scatter; no compound was filed as active;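 note: 0% = full activity with enzyme and -100% = basal without enzyme; dose as in the result columns while the protocol names 77 µM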
Rango dissoc inh – prevents RanGTP from dissociating the Rango-importin beta complex. O95149+P62826. Biochemical FRET Rango-importin beta, RanGTP-induced dissociation. Potency, µM (top dose mostly 46.1 µM), for the others: at the highest dose activity change, negative = inhibition. 340,000 compounds, 0.071% hits. AID 540253; active means falling FRET ratio curve, often poorly fitted, with flat reads before Ran was added; inconclusive means other falling curves, or compound fluorescence or quenching; inactive means flat or rising ratio curve;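 note: potency is the fitted concentration of half-maximal effect; % of control where 0% means no effect; nearly all actives have a fitted effect of over 45% in size; -100% = wells without RanGTP and RCC1; the record marks most hits as doubtful in a second field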
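Compounds preincubate 5 min with complex of recombinant Rango and importin beta in PBS with 1 mM DTT. Ran (0.6 uM) loaded with 2 mM GTP plus 0.2 uM RCC1 starts dissociation; FRET is recorded 45 min later.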
miR-21 reporter – miR-21 reporter, rising signal; AID 2288; HeLa miR-21 FLuc reporter, luciferase, 48 h; 340,000 tested, under 10 active; Potency, µM (highest dose often 38.3 µM), for the others: top-dose reporter change, positive = more light; active = well fitted rising curve with a large enough effect; inconclusive = small, poorly fitted or top-dose-only effect; inactive = no such curve, though single readings can be large or run the other way;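 note: % of control where 0% means no effect; miR-21 action dims this reporter so a rising signal means less miR-21 action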
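HeLa cells endogenously expressing miR-21, stably carrying CMV-driven firefly luciferase with a downstream miR-21 binding site, 2000 cells/well. Titrations up to approximately 40 uM, 48 hours; luciferase luminescence read.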
* hit, by the source's call; u = inconclusive; x = no result given; [ ] = remark or other dose. These rows are one share of the data (hit frequency here may not be typical).

SMILES | Rango dissoc inh | Rango-impB inh | GLA inh pH 4.5 | miR-21 reporter
CN(C)C(=O)c1cc([N+](=O)[O-])cc([N+](=O)[O-])c1N(C)C | -1.8% | 0.1% | -1.6 | -0.5%
CCOC(=O)c1sc2nc(SCC(=O)N(CC)CC)n(CCCN3CCCC3=O)c(=O)c2c1C | 0.4% | 1.3% | 7.0 | 1.8%
CN(c1ccc(O)cc1)c1nc(-c2ccccc2)cs1 | -0.6% | -2.5% | -5.6 | -16.8%
COc1ccc(C(=O)OCCc2ccc(O)cc2)cc1 | 7.1% | 3.6% | 7.0 | -80.2%
COCCNC(=O)c1ccc(-n2c(SCc3ccncc3)nc3ccccc3c2=O)cc1 | u | 0.3% | -1.8[21.1 µM] | -2.5%
O=c1cc(-c2ccco2)nc(SCc2cccc(Cl)c2)[nH]1 | -1.1% | -2.0% | x | 2.4%
CN(C(=O)c1cccc(C#N)c1)c1nnc(-c2ccncc2)s1 | -8.1% | 1.0% | 2.7 | 0.4%
O=C1Nc2ccccc2C1(O)C/C(=N/O)c1ccccc1 (centres undefined) | 2.0% | -1.4% | -3.3 | 3.0%
COC(Cn1c(C)c(C(C)=O)c(C(C)=O)c1C)OC | 18.2% | u | 10.9 | -3.6%
COc1ccc(C(=O)NCCNc2ccc([N+](=O)[O-])cc2)cc1OC | 14.2% | 0.7% | x | 5.3%
CCC(C)NC(=O)COCc1cc(-c2ccc3c(c2)OCO3)on1 (centres undefined) | -0.8% | 4.0% | x | -13.7%
Cc1coc(NC(=O)CSc2nc(-c3ccncc3)cc(C(F)(F)F)c2C#N)n1 | 24.0% | -0.1% | -1.5 | -2.4%
COc1cc(NC(=O)C23CC4CC(C2)CC(n2nnc(C)n2)(C4)C3)c(OC)cc1Cl | 13.7% | -0.9% | -3.9 | -3.8%
O=C(Nc1cccc2c1C(=O)NC2=O)c1ccccc1[N+](=O)[O-] | u | u | -1.3 | 3.5%
CC(=O)OC1=Cc2c(ccc3ccc(=O)oc23)OC1(C)C | 2.1% | -2.8% | 17.4 | -6.2%
CC(C)OC(=O)c1cc2c(ccn2C)n1CC(=O)N(Cc1ccccc1)c1ccccc1 | -13.3% | 0.0% | -9.5 | 20.7%
COc1ccc(CCNC(=O)C2CCC(=O)N(C3CCCCCC3)C2)cc1 (centres undefined) | 0.0% | -0.2% | x | -0.5%
COc1ccc(NC(=O)CC2C(=O)N(c3ccc(Cl)cc3)C(=S)N2CCc2ccncc2)cc1 (centres undefined) | -1.1% | 0.1% | -4.2 | 16.4%
O=C(NNS(=O)(=O)c1ccc([N+](=O)[O-])cc1)c1ccccc1 | -13.8% | 2.9% | x | x
COc1ccc(NC(=O)/C(=C/c2ccc(OC(C)=O)c(OC)c2)NC(C)=O)cc1 | -5.9% | 3.6% | -2.5 | -11.8%
CCOC(=O)CN(c1cc([N+](=O)[O-])ccc1OC)S(C)(=O)=O | 4.2% | 0.4% | 0.3 | -0.7%
CN(Cc1ccc2c(c1)OCCO2)C(=O)CSc1ncnc2sccc12 | -13.6% | 0.0% | x | x
O=C(c1cccs1)N1CCN=C1SCc1ccccc1F | 17.8% | 2.6% | -6.9 | -2.0%
O=C(Cn1cnc2sc3c(c2c1=O)CCCC3)NCC(=O)Nc1c(F)cccc1F | 3.0% | 0.8% | x | -2.9%
CCCn1c(O)c(N=NC(=O)CNC(=O)Cc2ccc(OC)cc2)c2ccccc21 | -5.2% | 0.2% | x | -10.5%
S=C1SCN(Cc2ccccc2)CN1Cc1ccccc1 | 8.3% | -3.2% | x | 9.4%
COc1ccc([N+](=O)[O-])cc1NC(=O)CCSCCc1ccccn1 | 2.0% | -0.5% | -2.4[21.1 µM] | -0.8%
CC(=O)Oc1ccccc1/C=C/c1ccc2ccccc2[n+]1C | -10.5% | -2.3% | x | -33.8%
Cc1ccc(NC(=S)N(C)N)cc1Cl | -9.8% | 8.5% | 7.5 | -9.7%
Cn1c(Cn2c(=O)sc3ccccc32)nnc1SCC(=O)Nc1cccc(F)c1 | -11.4% | 0.0% | 6.3 | -8.5%

Continued (2 carried over from the part before).
SMILES | Rango dissoc inh | Rango-impB inh | GLA inh pH 4.5 | miR-21 reporter
Cc1ccc(NC(=S)N(C)N)cc1Cl | -9.8% | 8.5% | 7.5 | -9.7%
Cn1c(Cn2c(=O)sc3ccccc32)nnc1SCC(=O)Nc1cccc(F)c1 | -11.4% | 0.0% | 6.3 | -8.5%
CCOC(=O)NC(=O)CN1C(=O)NC(C)(c2ccccc2)C1=O (centres undefined) | 20.2% | 0.4% | 4.2 | 0.2%
Cn1nccc1C(=O)N1CCCC(C(=O)c2cccc3ccccc23)C1 (centres undefined) | -14.8% | 0.3% | -9.5 | -6.6%
O=C(NCC1CCCO1)c1cc(C(=O)c2ccc(Cl)cc2Cl)c[nH]1 (centres undefined) | 13.7% | -0.2% | 1.4 | -2.4%
COc1ccc(NC(=O)/C=C/c2cc(Br)ccc2OC)cc1 | 1.9% | 6.5% | 1.0 | 7.2%
Cc1cc(=O)n2[nH]cc(C(=O)O)c2n1 | 0.0% | -0.1% | 3.7 | -39.9%
O=C(O)c1ccc(NS(=O)(=O)c2ccc(NC(=O)c3ccccc3Cl)cc2)cc1 | 2.1% | 5.5% | x | -3.1%
CCN(CC)CCCNC(=O)c1ccc(S(=O)(=O)Nc2ccc(C)c(C)c2)cc1 | 8.4% | -0.5% | x | x
COC(=O)Cc1c(C)nc2nc(-c3ccco3)[nH]n2c1=O | 1.1% | 4.9% | -1.5 | 5.1%
COC(C[C@H](O)CC(=O)[C@H](C)OCc1ccccc1)OC | 21.7% | -0.6% | 5.3 | 3.6%
CC1CCN(CCc2nc3cc(NC(=O)COc4ccc([N+](=O)[O-])cc4)ccc3n2C)CC1 | 0.2% | 1.2% | x | 4.8%
CC1c2c([nH]c3ccccc23)CCC1C(=O)O (centres undefined) | -10.1% | 2.1% | -5.8 | -7.0%
COc1ccc(-c2cc(C(F)F)n3ncc(C(=O)N4CCN(C)CC4)c3n2)cc1 | 0.9% | 0.0% | 0.8 | -22.3%
CC1(C)C2CC=C(/C=N/NC(=O)c3ccc(O)cc3)C1C2 (centres undefined) | 3.8% | 0.3% | -15.2 | -14.8%
COc1ccc(NC(=O)CN(C)C(=O)CNC(=O)C2CCCCC2)cc1 | -1.0% | 0.6% | x | -7.3%
O=C(CCC(=O)Nc1ccccc1Cl)N/N=C/c1ccccc1 | 3.8% | 3.4% | -1.6 | -11.3%
COc1ccc(C(=O)CSc2nc3[nH]ncc3c(=O)[nH]2)cc1 | 5.2% | 1.1% | -1.8 | -18.2%
O=C(Nc1ccc(F)cc1F)N1CCN(C/C=C/c2ccccc2)CC1 | 7.9% | 3.5% | 2.4 | 0.6%
Cc1ccnc(NC(=O)c2ccc([N+](=O)[O-])o2)c1 | 4.4% | 0.0% | -0.2 | -9.8%
CC(C)c1ccc(OCCCN2CCCC2)cc1 | -1.7% | -4.6% | x | -10.5%
COc1ccc(CNC(=S)Nc2cc(OC)ccc2OC)cc1 | -2.1% | -0.4% | -1.8 | -3.3%
Cc1ccc(NC(=S)NC(=O)c2ccc(-c3ccccc3)cc2)cc1 | -24.6% | u | x | x
CCC(C)(C)NC(=O)CN(C(=O)C(=O)Nc1ccc2c(c1)OCCO2)C1CC1 | 0.6% | 2.7% | x | -5.2%
CCC(=O)Nc1c2c(nn1-c1ccc(OC)cc1)CS(=O)C2 (centres undefined) | -2.5% | -5.4% | -19.8 | -1.3%
COC(=O)c1sc2nc(CN3CCN(c4ccc(OC)cc4)CC3)[nH]c(=O)c2c1C | -6.5% | -2.0% | 7.2 | 0.7%
COc1cc2nc(NC(=O)c3ccco3)sc(=O)c2cc1OC | 0.0% | -3.8% | -10.9 | 2.3%
COc1ccc(OC)c(C(=O)NC(CC(N)=O)c2ccc(N3CCC(Cc4ccccc4)CC3)c([N+](=O)[O-])c2)c1 (centres undefined) | 0.0% | 7.0% | x | -0.9%
CCc1ccc(CN2CCC(n3nccc3NC(=O)Cc3ccccc3)CC2)o1 | -1.5% | -0.4% | x | 4.6%
CCOc1ccc(NC(=S)NCc2ccc3c(c2)OCO3)cc1 | -11.2% | -4.7% | -6.4 | -11.3%
COC(=O)CCCCCNC(=S)Nc1ccc2[nH]c(=O)[nH]c2c1 | -4.8% | -2.7% | -1.7 | 4.4%
CCCC(NC(=O)C(C)N1CCN(S(=O)(=O)c2ccccc2)CC1)c1ccccc1 (centres undefined) | -8.2% | -1.8% | x | x
CC(=O)c1ccc(S(=O)(=O)Nc2cccc(-n3cnnn3)c2)cc1 | 8.2% | -1.7% | x | -0.9%
CCOC(=O)C(NC(=O)Nc1ccc(O)cc1)(c1ccccc1)C(F)(F)F (centres undefined) | -13.8% | 2.1% | -3.7 | -1.7%
Cc1cccn2c(CNCCc3ccco3)c(C(=O)N3CCOCC3)nc12 | 1.1% | -2.5% | x | 3.5%
O=C(NNC(=O)c1cc([N+](=O)[O-])ccc1Cl)c1cccnc1 | 2.2% | -2.5% | x | 4.7%
CCOC(=O)c1cc(NC(=O)C2C3CCC(O3)C2C(=O)O)cc(C(=O)OCC)c1 (centres undefined) | 8.0% | -0.4% | -1.1 | -10.5%
C=CCN1CCN(C(CC(C)C)c2nnnn2CCOC)CC1 (centres undefined) | 29.2% | 0.6% | 0.7 | -5.7%
CCOC(=O)CNC(=O)CSc1nc(-c2ccc(C)cc2)ns1 | -4.7% | 7.8% | -0.9 | -0.5%
COc1cccc(C(=O)n2cnnc2N)c1OC | -15.0% | u | 7.2 | -0.7%
COc1cc2cc(CN(CCO)S(=O)(=O)c3ccccc3)c(=O)[nH]c2cc1OC | -4.6% | 0.7% | 18.9 | -13.2%
COC(=O)COc1cccc(-n2cnnn2)c1 | 16.8% | -0.4% | 2.4 | -1.9%
CCN(CC)Cc1c(O)ccc2c(=O)c(-c3ccccc3OC)coc12 | -14.3% | 2.2% | x | 1.5%
CCSS(=O)(=O)c1cccc2cccnc12 | 0.9% | 0.9% | 0.1 | 19.1%

Of the compounds above, these have an NH in an aromatic ring.
SMILES | Rango dissoc inh | Rango-impB inh | GLA inh pH 4.5 | miR-21 reporter
O=c1cc(-c2ccco2)nc(SCc2cccc(Cl)c2)[nH]1 | -1.1% | -2.0% | x | 2.4%
O=C(NCC1CCCO1)c1cc(C(=O)c2ccc(Cl)cc2Cl)c[nH]1 (centres undefined) | 13.7% | -0.2% | 1.4 | -2.4%
Cc1cc(=O)n2[nH]cc(C(=O)O)c2n1 | 0.0% | -0.1% | 3.7 | -39.9%
COC(=O)Cc1c(C)nc2nc(-c3ccco3)[nH]n2c1=O | 1.1% | 4.9% | -1.5 | 5.1%
CC1c2c([nH]c3ccccc23)CCC1C(=O)O (centres undefined) | -10.1% | 2.1% | -5.8 | -7.0%
COc1ccc(C(=O)CSc2nc3[nH]ncc3c(=O)[nH]2)cc1 | 5.2% | 1.1% | -1.8 | -18.2%
COC(=O)c1sc2nc(CN3CCN(c4ccc(OC)cc4)CC3)[nH]c(=O)c2c1C | -6.5% | -2.0% | 7.2 | 0.7%
COC(=O)CCCCCNC(=S)Nc1ccc2[nH]c(=O)[nH]c2c1 | -4.8% | -2.7% | -1.7 | 4.4%
COc1cc2cc(CN(CCO)S(=O)(=O)c3ccccc3)c(=O)[nH]c2cc1OC | -4.6% | 0.7% | 18.9 | -13.2%
